# GLA inh pH 4.5: alpha-galactosidase A (human) inhibition, pH 4.5; AID 1467; 230,000 tested, under 10 active; activity change, negative = inhibition, % at 105 µM; purified enzyme, 4-MU-alpha-Gal fluorescence, pH 4.5; inconclusive = small, poorly fitted or top-dose-only inhibition, or a rising curve; inactive = flat fitted curve, though single readings scatter; no compound was filed as active;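 further: 0% = full activity with enzyme and -100% = basal without enzyme; dose as in the result columns while the protocol names 77 µM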
# Rango dissoc inh: inhibition of RanGTP-driven Rango-importin beta dissociation | AID 540253 | Biochemical FRET Rango-importin beta, RanGTP-induced dissociation | Potency, µM (highest dose often 46.1 µM), without a hit: at the top dose activity change, negative = inhibition | 0.071% of 340,000 active | O95149+P62826; active means falling FRET ratio curve, often poorly fitted, with flat reads before Ran was added; inconclusive means other falling curves, or compound fluorescence or quenching; inactive means flat or rising ratio curve;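 further: potency means the concentration at half of the fitted maximal effect; % of control where 0% means no effect; nearly all actives have a fitted effect of over 45% in size; -100% = wells without RanGTP and RCC1; the record marks most hits as doubtful in a second field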
#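 Rango/importin beta premix (0.1/0.25 uM final), PBS + 1 mM DTT + 0.02% Tween-20 + 0.1% BSA; cpd 5 min RT; FRET pre-read; + RanGTP-RCC1 (0.6 uM Ran, 2 mM GTP, 0.2 uM RCC1); 45 min RT; FRET post-read, ex 430, em 486/530 nm.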
# miR-21 FLuc: raises the signal of a miR-21 reporter | 340,000 tested, under 10 active | Potency, µM (doses to about 38.3 µM), for the others: at the highest dose reporter change, positive = more light | HeLa miR-21 FLuc reporter, luciferase, 48 h; active = well fitted rising curve with a large enough effect; inconclusive = small, poorly fitted or top-dose-only effect; inactive = no such curve, though single readings can be large or run the other way;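 further: % of control where 0% means no effect; miR-21 action dims this reporter so a rising signal means less miR-21 action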
#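 Compounds were titrated across several concentrations (up to approximately 40 uM) and incubated 48 hours with HeLa miR-21-FLuc reporter cells (miR-21 target sequence downstream of FLuc, endogenous miR-21). Readout was firefly luciferase luminescence after lytic detection reagent.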
# Rango-impB inh: Rango-importin beta binding inhibition; 0.031% of 340,000 active; AID 540263; Rango CFP/YFP FRET sensor + importin beta, 45 min; Potency, µM (top dose mostly 92.2 µM), for inactives: top-dose inhibition of complex formation; active = rising FRET ratio curve, often small or poorly fitted; inconclusive = mostly compound fluorescence or quenching in the first reads; inactive = flat curves in all reads;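 further: potency means the concentration at half of the fitted maximal effect; 0% = DMSO wells and 100% = buffer wells lacking importin beta; nearly all actives have a fitted effect of over 15% in size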
# Target sequence (Q14974 whole entry, looked up): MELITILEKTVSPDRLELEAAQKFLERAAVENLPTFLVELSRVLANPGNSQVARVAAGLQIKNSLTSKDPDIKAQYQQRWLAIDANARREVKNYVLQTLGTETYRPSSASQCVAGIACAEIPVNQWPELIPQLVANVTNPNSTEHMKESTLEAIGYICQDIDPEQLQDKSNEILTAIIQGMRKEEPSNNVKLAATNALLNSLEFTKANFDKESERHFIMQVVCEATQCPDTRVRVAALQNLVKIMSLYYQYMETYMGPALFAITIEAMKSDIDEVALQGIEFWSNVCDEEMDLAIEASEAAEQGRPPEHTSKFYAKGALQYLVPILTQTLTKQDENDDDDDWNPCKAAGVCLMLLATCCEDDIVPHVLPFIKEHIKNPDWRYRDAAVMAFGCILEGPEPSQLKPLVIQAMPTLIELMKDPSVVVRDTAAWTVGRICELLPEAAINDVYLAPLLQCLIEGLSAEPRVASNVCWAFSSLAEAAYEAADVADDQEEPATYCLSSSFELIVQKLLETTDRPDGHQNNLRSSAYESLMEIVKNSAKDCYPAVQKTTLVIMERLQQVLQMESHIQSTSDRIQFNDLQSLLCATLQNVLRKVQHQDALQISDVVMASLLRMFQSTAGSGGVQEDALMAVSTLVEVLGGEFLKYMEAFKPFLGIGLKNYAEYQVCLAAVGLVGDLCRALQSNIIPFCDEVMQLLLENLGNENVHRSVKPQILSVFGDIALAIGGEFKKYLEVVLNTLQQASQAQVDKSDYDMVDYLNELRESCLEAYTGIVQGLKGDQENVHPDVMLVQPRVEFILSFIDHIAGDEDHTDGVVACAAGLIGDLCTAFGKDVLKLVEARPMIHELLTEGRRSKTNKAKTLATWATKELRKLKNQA
#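 Inhibition scored from the CFP 486 nm/YFP 530 nm FRET ratio 45 min after adding 0.125 microM importin beta to 50 nM Rango biosensor preincubated 5 min with compound (room temperature, PBS with DTT, Tween-20, BSA). No-importin wells as positive control.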
# The depositor's hits bear a star; ? = inconclusive; / = not tested or not shown; & = joins results of further samples; [ ] = dose if it differs, or a comment. These rows are one share of the data (hit frequency here may not be typical).
Rango-impB inh,GLA inh pH 4.5,Rango dissoc inh,miR-21 FLuc,canonical_smiles
1.7%,-9,4%,-2%,Cc1nn(-c2ccccc2)c2c1C1(C(=O)Nc3ccccc31)N1C(=N2)Sc2ccccc21 (stereo not drawn)
?,-3,?,-34%,CC(=O)c1ccc(N2Cc3ccccc3C3(CCOCC3)C2=N)cc1
-1.9%,/,-14%,/,CCN(CC)C(=O)Cn1cc(S(=O)(=O)CC(=O)Nc2ccccc2F)c2ccccc21
-0.7%,/,2%,-2%,Cc1ccc(S(=O)(=O)N2CCN(c3ccccc3)CC2)cc1C
0.8%,2,-9%,-3%,CNC(=O)/C(=C\C=C\c1ccccc1)NC(=O)c1ccc([N+](=O)[O-])cc1
-1.0%,3,-4%,-13%,Cc1onc(-c2c(F)cccc2Cl)c1C(=O)NCc1ccco1
-1.9%,4,-1%,-11%,COc1ccc(S(=O)(=O)Nc2ccc(S(=O)(=O)N3CCCCC3)cc2)cc1
2.0%,-1,-13%,-31%,COC(=O)NCC(C)OC(=O)Nc1ccc(Cl)cc1 (stereo not drawn)
0.0%,3,12%,-32%,Cc1cc(S(=O)(=O)Nc2ccccc2C)ccc1F
0.0%,/,31%,23%,FC(F)(F)c1nnc2c3ccccc3c(Cl)nn12
6.5%,/,4%,0%,COc1ccc(CNC(=O)CCS(=O)(=O)c2ccc(Br)cc2)cc1
-1.0%,6[21.1 µM],13%,-2%&11%,COc1ccc(NC(=O)Cn2cnc3sc(C)c(S(=O)(=O)N4CCN(C)CC4)c3c2=O)cc1OC
-2.9%,-9[21.1 µM],-1%,-21%,C=CCn1c(SC(C)C#N)nc2sc(CC)cc2c1=O (stereo not drawn)
0.1%,0,2%,1%,CCCOc1ccc(-c2cc(C(F)(F)F)c(C#N)c(SCC(=O)O)n2)cc1
?,/,8%,-5%,O=C1CCNCCN1[C@H](CO)c1ccccc1
0.2%,-6,5%,2%,C[C@H](c1ccccc1)n1nnc(COCc2ccccc2)c1C#CCOCc1ccccc1
-2.4%,-22,-8%,7%,CC(C)C[C@H](NC(=O)c1nc[nH]c1C(=O)NCC(=O)OC(C)(C)C)C(=O)OCc1ccccc1
-0.2%,-3,-23%,-71%,CCN1CCC2(CC1)Oc1c(OC)cccc1C1CC(c3cccnc3)=NN12 (stereo not drawn)
-3.4%,/,1%,/,O=c1c2ccccc2oc2ccc(-c3ccc4[nH]ccc4c3)cc12
-3.2%,/,13%,/,Cc1cccc(C)c1NC(=O)CN1CCN(CC(=O)NCC2(N3CCCCC3)CCCCC2)CC1
-0.5%,3,10%,-1%,COc1ccc(OC)c(C(C(=O)NCc2ccco2)N(C(=O)Cn2nnc3ccccc32)C2CC2)c1 (stereo not drawn)
-5.2%,-8,-9%,-11%,Cc1ccc(O)c(C(=O)c2cc(C#N)c(=O)n(C(C)c3ccccc3)c2)c1 (stereo not drawn)
-0.3%,-4,1%,-47%,Cc1ccc(CNc2ccc(Cl)cc2[N+](=O)[O-])cc1
?,-2,-18%,4%,Oc1ccc(/C=N/Nc2cc(N3CCCC3)nc(N3CCCC3)n2)cc1
-0.5%,-10,24%,-9%,COc1ccccc1C(=O)NC(=S)Nc1ccc(S(=O)(=O)N2CCN(C)CC2)cc1
3.5%,-2,23%,-5%,CC(=O)NCCc1nc2ccccc2n1CCOc1ccccc1
0.9%,/,0%,/,Nn1c(=S)[nH]c2sc3c(c2c1=O)CCCC3
7.0%,-5,0%,-1%,S=c1nc(C2CCCCC2)[nH][nH]1
2.7%,-3,1%,1%,COc1cc(NC(=O)CSc2nc3ccccc3cc2Cc2ccccc2)cc(OC)c1
4.0%,4,2%,-32%,CCCCOC(=O)Sc1nc2ccccc2o1
?,5,?,-15%,Oc1ccccc1/C=N/Nc1cccc2cccnc12
1.2%,/,-10%,15%,COC(=O)[C@H](Cc1ccccc1)N(C)S(=O)(=O)c1cccc(S(=O)(=O)N(C)[C@@H](Cc2ccccc2)C(=O)OC)c1
5.4%,0,-11%,0%,O=S1(=O)CC/C(=N/Nc2ccc(C(F)(F)F)cn2)c2cc(F)ccc21
-1.1%,/,-19%,/,COc1ccc(C(=O)NCC2CCCCC2)cc1S(=O)(=O)N1CCCC1
-2.9%,6,3%,-3%,O=C(Cn1nc(-c2ccccc2)c2ccccc2c1=O)Nc1ccc(O)cc1
0.9%,/,0%,/,CC[C@@]1(C(=O)OC)N[C@H](CN(C)S(=O)(=O)c2ccc(F)cc2)[C@@H]2C(=O)N(C)C(=O)[C@@H]21

# Record cards, as listed above:
# Results for COc1ccc(C(=O)NCC2CCCCC2)cc1S(=O)(=O)N1CCCC1 : Rango-impB inh: -1.1%; GLA inh pH 4.5: /; Rango dissoc inh: -19%; miR-21 FLuc: /
# Results for COc1cc(NC(=O)CSc2nc3ccccc3cc2Cc2ccccc2)cc(OC)c1 : Rango-impB inh: 2.7%; GLA inh pH 4.5: -3; Rango dissoc inh: 1%; miR-21 FLuc: 1%

# (continued)
Rango-impB inh,GLA inh pH 4.5,Rango dissoc inh,miR-21 FLuc,canonical_smiles
5.0%,-7,-17%,1%,COCC(C)OC(=O)c1c(N)n(-c2ccc(OC)c(OC)c2)c2nc3ccccc3nc12 (stereo not drawn)
-0.8%,/,-4%,1%,COc1ccc(S(=O)(=O)N2CCOCC2)cc1C(=O)N1CCCC1
9.0%,-4,21%,-28%,Cc1ccc(-c2nc3c4ccccc4ccn3c2CN2CCCCC2)cc1
-1.2%,7,-5%,-8%,Cc1ccc(CN2C(=O)CCC2C(=O)NCc2ccccc2Cl)cc1 (stereo not drawn)
-2.4%,/,0%,/,CCOc1ccc(S(=O)(=O)N2CCC(C(=O)Nc3ccc(C)c(S(=O)(=O)N4CCOCC4)c3)CC2)cc1
-3.7%,1,-3%,0%,Cc1ccc(NC(=O)CN2CCC3(O)CCCCC3C2c2ccc3c(c2)OCO3)c(C)c1 (stereo not drawn)
?,/,-20%,1%,O=C(CCC(=O)c1ccc(F)cc1)Nc1cccc(Br)c1
-0.1%,2,6%,1%,CN(C)c1cc(-c2cccc([N+](=O)[O-])c2)oc(=O)c1Cl
0.4%,/,-1%,/,C=CCn1c(SCC(=O)NC(=O)Cc2ccccc2)nnc1-c1ccccc1F
-6.0%,/,-12%,2%,CC(=O)C1=C(O)C(=O)N(c2ccc(C(=O)O)cc2)C1c1ccc([N+](=O)[O-])cc1 (stereo not drawn)
6.4%,/,10%,-44%,C=CCn1cccc(C(=O)Nc2ccc(OC)c(Cl)c2)c1=O
6.2%,-2,2%,8%,Cc1onc(-c2c(Cl)cccc2Cl)c1C(=O)N=C(N)N1CC(C)OC(C)C1 (stereo not drawn)

# Four compounds from above, reduced to GLA inh pH 4.5 and miR-21 FLuc.
SMILES	GLA inh pH 4.5	miR-21 FLuc
FC(F)(F)c1nnc2c3ccccc3c(Cl)nn12	/	23%
COc1ccc(CNC(=O)CCS(=O)(=O)c2ccc(Br)cc2)cc1	/	0%
COc1ccc(NC(=O)Cn2cnc3sc(C)c(S(=O)(=O)N4CCN(C)CC4)c3c2=O)cc1OC	6[21.1 µM]	-2%&11%
C=CCn1c(SC(C)C#N)nc2sc(CC)cc2c1=O (stereo not drawn)	-9[21.1 µM]	-21%

# Next records follow:
Rango-impB inh,GLA inh pH 4.5,Rango dissoc inh,miR-21 FLuc,canonical_smiles
?,1,-6%,?,O=C(/C=C/Sc1ncn[nH]1)c1ccc(Cl)cc1
4.5%,-1,-5%,0%,CC1(C)OC(=O)N(c2cccnc2)C1(C)O (stereo not drawn)
0.0%,/,2%,-8%&0%,Cc1ccc(NC(=O)CSc2ccc(-c3ccccn3)nn2)cc1F
7.2%,/,-5%,-43%,Cc1nc(NCCc2ccccc2)sc1C(=O)N(C)C
-3.8%,/,?,-2%,O=C(c1ccc(OC2CCN(Cc3cccc(F)c3)CC2)cc1)N1CCCCC1
-3.0%,5,-10%,0%,Cc1ccc(NC(=O)CN2CCN(CCN=CC3=C(O)CC(C)(C)CC3=O)CC2)cc1
0.2%,-5,-11%,-2%,O=C(O)c1ccc(Oc2ccccc2)o1
-0.2%,-1,3%,-5%,CCC(=O)Nc1nc(C)c(C(=O)N2CCCCC2)s1
2.2%,/,-4%,1%&3%,COc1ccc(N2CCN(S(=O)(=O)CCNC(=O)C3CC(=O)N(c4ccccc4)C3)CC2)cc1 (stereo not drawn)
-4.1%,0,-10%,-5%,Cc1cc(NC(=O)CC(C)(C)C)nc2c1c(=O)oc1ccccc12
-0.1%,14,1%,2%,CC1CCCN(c2nc3c(c(=O)[nH]c(=O)n3C)n2Cc2ccccc2Cl)C1 (stereo not drawn)
4.7%,/,0%,4%,CCOc1ccc(CN2CCNC(=O)C2CC(=O)NC2CCOCC2)cc1 (stereo not drawn)
2.8%,/,?,/,C=CC1CN(C(=O)OCC(Cl)(Cl)Cl)C2CC3c4ccc(OC)cc4NC3C3CC1C2CO3 (stereo not drawn)
0.1%,/,-6%,/,CSc1ccccc1C(=O)OCC(=O)NCCN1C(=O)CSC1=O
4.7%,-8,-2%,-2%,CN(C)CCCN1C(=O)C(=O)/C(=C(/O)c2ccncc2)C1c1ccccc1 (stereo not drawn)
-2.1%,-5,2%,-47%,Cc1ccc(NC(=O)c2ccc3ccccc3n2)cc1S(=O)(=O)N(C)C
-0.4%,-6,-11%,-6%,O=C(COC(=O)CCSc1ccc(Cl)cc1)NCc1ccccc1Cl
1.8%,/,1%,/,O=C(Nc1cccc(-c2nc3ncccc3o2)c1)c1ccc2c(c1)OCO2
-0.3%,5,13%,-4%,COc1ccc(NCc2nnc(SCC(=O)N3CCCc4ccccc43)o2)cc1
4.6%,-1,14%,-2%,Cc1ccccc1NC(=O)c1c(C)[nH]c(=S)c(C#N)c1-c1ccc(Cl)cc1
-2.2%,-14,-1%,0%,CCc1ccccc1NC(=O)CSc1nc2ccccc2n1CC(=O)N(C)C
-2.7%,-4,-10%,1%,O=C(O)C1CCC(=O)N1Cc1ccccc1Cl (stereo not drawn)
0.5%,/,-7%,/,O=C(OCC(=O)N1CCc2ccccc21)c1ccc(Br)o1
-0.6%,-7,-11%,-3%,C=CCNCC(O)COc1ccc(C(C)=O)cc1OC (stereo not drawn)
3.6%,-5,-12%,-2%,Cc1cc(C(=O)COC(=O)C2COc3ccccc3O2)c(C)n1CC1CCCO1 (stereo not drawn)
4.3%,-4,-6%,-1%,Cc1c(-c2ccccc2)[n+](=O)c(-c2ccc(Br)cc2)c(C)n1[O-]
-1.8%,?,-5%,-27%,Cc1ccsc1C(=O)OCC(=O)Nc1sccc1C(N)=O
0.5%,-8,2%,-6%,COc1cc(C(=O)N2CCN(Cc3ccccc3C(F)(F)F)CC2)cc(OC)c1OC
1.7%,-9,0%,-38%,CC(C)CCNC(=O)NC(=O)COc1ccccc1C#N
0.4%,5,-13%,-1%,CCOc1cc(CO)ccc1OCC(=O)N1CCCCC1
3.0%,/,-13%,/,COc1ccc(NC(=O)COC(=O)CC2Sc3ccccc3NC2=O)cc1 (stereo not drawn)
?,/,?,-8%,CN(C)c1ccc(/C=C2\C(=N)N3N=C(CC(=O)N4CCCCC4)SC3=NC2=O)cc1
1.5%,-10,1%,7%,CCOC(=O)/C=C/C(=O)Nc1ccc(S(=O)(=O)N(C)c2ccccc2)cc1
0.8%,1,0%,6%,O=C(N/C(=C/c1ccc(Br)cc1)C(=O)N1CCOCC1)c1cccs1
-2.6%,0,1%,-66%,CCC(=O)Nc1ccc2oc(-c3cccnc3)nc2c1
1.1%,-1,12%,-14%,O=C(Nc1cccc2ccccc12)c1ccccc1NS(=O)(=O)c1cccc2cccnc12
3.1%,-10,1%,0%,COc1ccc(S(=O)(=O)N2CCCC(C(=O)NCc3ccco3)C2)cc1Cl (stereo not drawn)
0.1%,2,5%,2%,O=C(C[n+]1cc(-c2ccccc2)n2c1CCC2)c1cccs1
-2.2%,/,-9%,0%&-27%,COc1ccccc1NC(=O)CCC(=O)N1CC(C)Oc2ccc(C)cc21 (stereo not drawn)
-0.8%,/,22%,0%,CCc1ccccc1NC(=O)CSc1nnc(CNC(=O)c2ccco2)n1C
-0.1%,/,?,/,COc1cccc(OC)c1OCC(=O)Nc1ccc(S(=O)(=O)N2CCCC2)cc1
5.7%,/,2%,/,CCC(=O)N(c1nnc(SCC(=O)NN2C(=O)NC3(CCCCC3)C2=O)s1)C1CC1
